Screening data: PubChem BioAssay, several laboratories
Yeast UUG start: modulators of yeast start codon fidelity, primary screen, whole organism, S. cerevisiae, single point, plate reader; S. cerevisiae UUG-firefly luciferase reporter, luminescence/redox ratio; activity score, % at 18.7 µM; 350,000 tested, 0.13% active;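 active = replicate mean at a twofold rise or more, about +100% in these data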;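 note: firefly luciferase made from a UUG start codon reports start codon fidelity; reporter light over untreated wells divided by growth signal over untreated wells; some hits fall short of that in this replicate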
PABP polyA inh: PABP poly(A) RNA binding inhibitors, primary screen, biochemical, fluorescence polarization, uHTS. inhibition, % at 35 µM. 290,000 tested, 1% active. AID 2014, 2009;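 active = 50% or more with normal probe brightness, or confirmed in later tests; inconclusive = above 50% with abnormal brightness, or retests that disagree; inactive = below 50% or failed in later tests; about a fifth of its hits are not listed in these tables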;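 note: calls also rest on retests at 20 µM and on dose response follow-up; controls were probe without protein and protein plus probe with vehicle; some compounds called inactive have numbers as strong as hits; many hits fall short of the cut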
Target sequence (P11940 whole entry, looked up): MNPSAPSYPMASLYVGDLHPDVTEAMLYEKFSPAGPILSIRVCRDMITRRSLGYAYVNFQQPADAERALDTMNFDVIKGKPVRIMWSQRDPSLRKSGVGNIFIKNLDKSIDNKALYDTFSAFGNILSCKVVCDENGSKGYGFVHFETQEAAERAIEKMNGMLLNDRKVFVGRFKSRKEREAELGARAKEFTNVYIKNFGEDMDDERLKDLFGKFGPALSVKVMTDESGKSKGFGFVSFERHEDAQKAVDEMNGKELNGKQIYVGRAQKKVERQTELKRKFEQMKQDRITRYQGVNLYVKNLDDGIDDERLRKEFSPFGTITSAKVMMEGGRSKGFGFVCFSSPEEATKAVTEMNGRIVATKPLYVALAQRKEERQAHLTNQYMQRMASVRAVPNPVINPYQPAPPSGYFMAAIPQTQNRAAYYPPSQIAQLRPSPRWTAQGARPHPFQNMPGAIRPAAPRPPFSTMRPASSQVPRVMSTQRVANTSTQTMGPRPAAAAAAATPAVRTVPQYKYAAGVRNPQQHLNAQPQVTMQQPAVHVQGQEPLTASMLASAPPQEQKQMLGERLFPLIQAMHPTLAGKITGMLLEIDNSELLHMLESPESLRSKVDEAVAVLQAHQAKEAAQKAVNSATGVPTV
eIF4H inh: human eIF4H binding inhibitors, primary screen, translation initiation inhibitor project, biochemical, uHTS, fluorescence polarization; Eukaryotic translation initiation factor 4H (Homo sapiens), Q15056; eIF4H fluorescence polarization binding assay; inhibition, % at 35 µM; 290,000 tested, 0.94% active;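 active = 50% or more with normal probe brightness, or confirmed in later tests; inconclusive = above 50% with abnormal brightness, or retests that disagree; inactive = below 50% or failed in later tests; about a fifth of its hits are not listed in these tables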;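 note: calls also rest on retests at 20 µM and on dose response follow-up; 0% = protein and probe with vehicle and 100% = probe without protein; strong numbers were not always called active; many hits fall short of the cut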
CSC inhib: cancer stem cell viability inhibitors, primary screen, luminescence | cancer stem cell-like cells viability | inhibition, % at 7.5 µM | 300,000 tested, 1.1% active;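 active = mean at 75% or more and at least half the replicates too; inconclusive = mean and replicates disagree; tested in HMLE shEcad cells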;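 note: 0% = median of negative and 100% = median of positive control wells; the first replicate is given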
Rce1 inh: yeast Rce1p protease inhibitors, primary screen, biochemical, fluorescence, cell-free homogeneous | AID 2563, 2010 | 290,000 tested, 0.27% active | yeast membranes, quenched prenylated peptide cleavage fluorescence | calls only | CAAX prenyl protease 2 (Saccharomyces cerevisiae (strain ATCC 204508 / S288c)), Q03530;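 active = fall in fluorescence gain of 50% or more versus controls, with final raw signal at or below 3038400; inconclusive = same 50% fall but final raw signal above 3038400; inactive = fall in fluorescence gain under 50%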;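 note: plate controls were neutral control wells for no effect and wells lacking membranes for full effect; tested at 10 µM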
HIV Env fusion: inhibitors of HIV-1 Env-driven cell-cell fusion, primary screen, HeLa-JRFL effector, CEM21 target cells, luciferase; inhibition, % at 12.3 µM; 360,000 tested, 1.1% active;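 active = mean replicate inhibition score of at least 50 and every replicate individually at or above 50; inconclusive = only one of the two criteria met; inactive = mean below 50 and not all replicates reaching 50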;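 note: 0% = plate neutral controls and 100% = maraviroc near 300 nM; one replicate is shown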
MT1-MMP act inh: blockers of MT1-MMP proenzyme processing, primary screen, HT1080 RFP-PRO-GFP cells, GFP/RFP fluorescence; Matrix metalloproteinase-14 (Homo sapiens), P50281; GFP/RFP ratio fluorescence, overnight; percent of plate control window, DMSO zero; GFP/RFP ratio change, % at 20 µM; 360,000 tested, 0.061% active; AID 651647, 2012;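 active = GFP/RFP ratio change of at least 30% with cell ATP level not reduced by more than half and red fluorescence within 50% of control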; note: strong numbers were not always called active
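Assay system: HT1080 RFP-PRO-GFP cells. Benchmarks: DMSO vehicle wells and RFP-L50D-GFP reporter cell wells. Times: overnight cell settling, then overnight compound exposure, 37 °C, 5% CO2. Compound: 20 µM single dose, 1% DMSO. Read-out basis: GFP/RFP fluorescence ratio.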
eIF4H inh retest: further read-out of eIF4H inh, marked with its call; inhibition, %; compound at 20 µM; confirmation average;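 mean of two retest wells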
PABP polyA inh retest: further read-out of PABP polyA inh, marked with its call; inhibition, %; compound at 20 µM; confirmation repeats;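 mean of two retest wells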
MT1-MMP act inh RFP: second read-out of MT1-MMP act inh, no call of its own (marks repeat the call); RFP signal change, %; measured here: RFP expression control read;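 0 = vehicle wells; hits needed this value within 50% of zero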
* marks the source's active call; other numbers are inactive results; i = inactive; ? = inconclusive; · = not tested or not shown; & = joins results of further samples.

SMILES | Yeast UUG start | PABP polyA inh | eIF4H inh | CSC inhib | Rce1 inh | HIV Env fusion | MT1-MMP act inh | MT1-MMP act inh RFP | others
O=C1/C(=C\c2cccnc2)Sc2ccccc21 | · | -2 | 51 | 13 | i | 5 | 12 | 16 | eIF4H inh retest=48;PABP polyA inh retest=33
Cc1ccc(OCC(=O)NC(=S)Nc2ccc(Br)cn2)cc1 | · | -7 | 19 | -4 | i | -16 | 0 | -5
COc1cc(/C=C2/C(=O)N(C)C(=S)N2C)ccc1OCc1cccc(F)c1 | -19 | -3 | 2 | -14 | i | 0 | -39 | 2
Cc1nnc(SCC(=O)NCc2ccc3c(c2)OCO3)s1 | -10 | -9 | -6 | -8 | i | · | 10 | 4
Cn1c2ccccc2c2nnc(SCC(=O)Nc3ccccc3F)nc21 | -16 | 13 | 11 | -9 | i | -2 | 2 | 4
COc1ccc(C(=O)Nn2c(C)nc3ccccc3c2=O)cc1Br | · | 3 | -13 | -13 | i | 3 | 3 | 1
CCn1cc(C(=O)O)c(=O)c2cc(F)c(N3CCN(C(=S)NC(=O)c4cc(OC)cc(OC)c4)CC3)cc21 | -29 | 12 | 22 | -12 | i | 21 | -1 | -4
O=C(CN(Cc1ccccc1F)C(=O)c1csnn1)NCc1ccc2c(c1)OCO2 | -11 | 0 | -6 | 4 | i | 2 | -2 | 0
CN(CCCN1CCCCC1)C(=O)CCc1nnc(C2CCCCC2)o1 | -10 | -6 | -1 | -26 | i | -3 | -1 | 3
COc1ccc(CCN(Cc2cc3ccc(C)cc3[nH]c2=O)C(C)=O)cc1OC | -1 | -11 | 2 | 10 | i | 16 | 9 | 1
CSc1nc(-c2ccccc2)nn1C(=O)c1ccc(C)cc1 | -12 | 6 | 12 | -6 | i | · | -5 | 2
CC(NC(=O)COC(=O)C1CC2CCCC(C1)C2=O)c1ccccc1 (configuration not stated) | -13 | · | · | · | · | 11 | 0 | 1
O=C1C2CCCN2C(c2cccs2)N1c1ccc(F)cc1 (configuration not stated) | · | -14 | 7 | -1 | i | -25 | 1 | 2
CCOC(=O)CCC(=O)NCc1ccc2[nH]c(C)cc2c1 | -9 | 7 | 10 | 3 | i | · | 19 | 7
O=S(=O)(Nc1nnc(-c2ccccc2)s1)c1ccc(Cl)cc1 | -7 | 30 | -2 | 18 | i | · | -5 | -7
COc1ccc(Cn2c(CCC(=O)Nc3ccccc3)nc3cccnc32)cc1 | · | 10 | 2 | 14 | · | -22 | 0 | -1
CCOc1ccc(-n2c(Cc3cc(=O)[nH]c(=O)[nH]3)nnc2SC(C)C)cc1 | -10 | 3 | 6 | 3 | i | 7 | -2 | -1
CC(=O)c1sc(NC(=O)C2CC(=O)N(Cc3ccccc3)C2)nc1-c1ccccc1 (configuration not stated) | · | · | · | -25 | i | -6 | -7 | -3
COCCOC(=O)c1nccnc1C(=O)Nc1ccc(S(=O)(=O)N2CCOCC2)cc1 | 1 | 0 | -3 | 2 | i | -125 | -4 | -1
Cc1ccc(-n2c(C)cc(/C=N/NC(=O)c3ccc(CN4CCOCC4)cc3)c2C)cc1 | -10 | 13 | -2 | 2 | i | 22 | 1 | -7
COc1ccc(-c2cn(-c3ccccc3)c3[n+]2CCS3)cc1 | -3 | 1&-8 | 2&-6 | 23&14 | i | 25 | -12&-9 | -28&-23
CN1C(=O)Cc2cc(S(=O)(=O)NCCc3ccc(Cl)cc3)ccc21 | -10 | 6 | 1 | -5 | i | -5 | -2 | 5
COCc1nc(-c2ccc(-c3ccc(OC)cc3)nc2OC)no1 | -14 | -17 | -11 | · | i | -37 | 0 | 1
Nc1ncc(S(=O)(=O)c2ccc([N+](=O)[O-])cc2)s1 | -16 | · | · | · | · | 24 | 5 | -2
N#C/C(=C/c1ccc(-c2ccc(S(N)(=O)=O)cc2)o1)c1nc2ccccc2s1 | · | -13 | ? | 4 | · | -11 | -113 | 1

Overlap with the part before: 4 compounds, then new ones.
SMILES | Yeast UUG start | PABP polyA inh | eIF4H inh | CSC inhib | Rce1 inh | HIV Env fusion | MT1-MMP act inh | MT1-MMP act inh RFP | others
CN1C(=O)Cc2cc(S(=O)(=O)NCCc3ccc(Cl)cc3)ccc21 | -10 | 6 | 1 | -5 | i | -5 | -2 | 5
COCc1nc(-c2ccc(-c3ccc(OC)cc3)nc2OC)no1 | -14 | -17 | -11 | · | i | -37 | 0 | 1
Nc1ncc(S(=O)(=O)c2ccc([N+](=O)[O-])cc2)s1 | -16 | · | · | · | · | 24 | 5 | -2
N#C/C(=C/c1ccc(-c2ccc(S(N)(=O)=O)cc2)o1)c1nc2ccccc2s1 | · | -13 | ? | 4 | · | -11 | -113 | 1
COCCCN(Cc1ccco1)C(=O)CSc1nc2ncccc2[nH]1 | -34 | 15 | -4 | 0 | i | 5 | -2 | 2
CCOC(=O)CSc1ccccn1 | · | 6 | 0 | -23 | i | 10 | -1 | 2
CCC(C)c1ccccc1NC(=O)Cc1coc2cc3c(cc12)CCC3 (configuration not stated) | · | -12 | -9 | 5 | i | 6 | -3 | -2
CC1Cc2ccccc2N1C1=CC(=O)CCC1 (configuration not stated) | · | -11 | 3 | -12 | i | -32 | -5 | -4
Cc1ccccc1CNC(=O)C1CCC(=O)N(CC2CCCCC2)C1 (configuration not stated) | -3 | 2 | -2 | 3 | i | 4 | 2 | 6
C(=N\n1cnnc1)/c1ccc(N2CCOCC2)s1 | -12 | -2 | -4 | 3 | i | · | 2 | 6
O=C(CN1C(=O)c2ccccc2C1=O)N1CCN(c2ccccc2)CC1 | -8 | 2 | -4 | 1 | i | · | 9 | -2
Cn1c2[n+](c3ccc(Cl)cc3c1=O)Cc1ccccc1-2 | -3 | 6 | -3 | -12 | i | 24 | 0 | 7
O=C(/C=C/c1ccc([N+](=O)[O-])cc1)NCCc1ccccc1 | · | 3 | -1 | 8 | i | 11 | 6 | 2
CC(C)CN(C(=O)CN1CCN(c2cccc(Cl)c2)CC1)c1c(N)n(CC(C)C)c(=O)[nH]c1=O | 7 | 2 | -2 | 0 | i | 29 | -2 | -2
COC(=O)C1CCN(C(=O)COC(=O)CC(NC(C)=O)c2ccccc2)CC1 (configuration not stated) | · | -4 | -3 | 6 | i | -56 | -8 | -10
C[C@@H]1CN([C@H](C)CO)C(=O)CCCn2cc(nn2)CO[C@H]1CN(C)S(=O)(=O)c1ccc2ccccc2c1 | 0&-3 | · | · | · | · | -74 | -4 | 1
Cc1ccc(N(Cc2cc3ccccc3[nH]c2=O)S(C)(=O)=O)cc1 | · | 3 | -1 | -3 | i | -1 | -2 | -1
O=C(COc1ccccc1)Nc1nnc(-c2ccccc2)o1 | -20 | 6 | 5 | -2 | i | -7 | 1 | 4
CCOC(=O)C1CCN(S(=O)(=O)c2ccc(Cl)cc2)CC1 | -20 | -2 | -5 | -7 | i | 10 | 1 | -1
Cc1ccc(S(=O)(=O)c2nnn3c2nc(N2CCOCC2)c2ccccc23)cc1C | -39 | -4 | -9 | -10 | i | 19 | -2 | 1
COc1ccc(C(=O)NNC(=O)c2ccc(F)c(S(=O)(=O)N3CCOCC3)c2)cc1 | · | · | · | -9 | · | -28 | 2 | -3
Cc1noc2ncnc(N3CCCCC3)c12 | · | -10 | -7 | · | i | 0 | 2 | -3
Cc1nc2ccc(NC3=NCCCCC3)cc2s1 | 0 | 15 | 6 | -8 | i | -33 | 2 | 2
O=C(CCn1c(=O)oc2ccccc21)Nc1ccc2c(c1)OCCO2 | -12 | -1 | -12 | 11 | i | · | -2 | 6
O=C(c1cccs1)n1nc(-c2cccnc2)nc1NCc1ccco1 | -15 | 13 | -3 | · | i | -7 | 0 | 1
CCN(CC)S(=O)(=O)c1cccc(-c2nnc(SC(C)C#N)n2Cc2ccccc2)c1 (configuration not stated) | -3 | -11 | -6 | 5 | i | 4 | 0 | 6
CC1(C)Oc2ccc(C(=O)N3CCc4ccccc43)cc2N(CC(=O)N2CCCC2)C1=O | 6 | -3 | 0 | -5 | i | -53 | 8 | -2
CN(CC(=O)O)S(=O)(=O)c1ccc(F)cc1 | -11 | 2 | -5 | -9 | i | -15 | 4 | 3
Cc1ccc(C2C(=O)N(C3CCC(C)CC3)CC(=O)N2C2CC2)cc1 (configuration not stated) | -12 | -4 | 0 | -7 | i | · | 3 | 7

For reference, 3 of the compounds above.
SMILES | Yeast UUG start | PABP polyA inh | eIF4H inh | CSC inhib | Rce1 inh | HIV Env fusion | MT1-MMP act inh | MT1-MMP act inh RFP | others
CC1(C)Oc2ccc(C(=O)N3CCc4ccccc43)cc2N(CC(=O)N2CCCC2)C1=O | 6 | -3 | 0 | -5 | i | -53 | 8 | -2
CN(CC(=O)O)S(=O)(=O)c1ccc(F)cc1 | -11 | 2 | -5 | -9 | i | -15 | 4 | 3
Cc1ccc(C2C(=O)N(C3CCC(C)CC3)CC(=O)N2C2CC2)cc1 (configuration not stated) | -12 | -4 | 0 | -7 | i | · | 3 | 7

(listing goes on)
SMILES | Yeast UUG start | PABP polyA inh | eIF4H inh | CSC inhib | Rce1 inh | HIV Env fusion | MT1-MMP act inh | MT1-MMP act inh RFP | others
Cc1c(NC(=S)NC(NC(=O)CC(C)C)C(Cl)(Cl)Cl)c(=O)n(-c2ccccc2)n1C (configuration not stated) | -23 | 3 | -5 | -1 | i | 10 | -3 | 0
O=C(CSc1nnnn1-c1ccc2c(c1)OCCO2)N1CCN(C(=O)c2ccco2)CC1 | · | -1 | -6 | -7 | i | 2 | 1 | 2
Cc1cccc(NC(=S)N(CCN(C)C)Cc2cc3cc(C)cc(C)c3[nH]c2=O)c1 | -20 | -2 | -8 | 20 | i | 18 | -2 | -3
CN(CC1CCCN(CCc2ccc(Cl)cc2)C1)C(=O)c1ccco1 (configuration not stated) | -24 | -4 | -7 | -3 | i | 6 | 4 | 1
CC[C@@]1(C(=O)OC)N[C@H](CN(C)C(=O)Nc2ccc(OC)cc2)[C@@H]2C(=O)N(C)C(=O)[C@@H]21 | -22 | · | · | · | · | -17 | 0 | 3
Cc1ccc(S(=O)(=O)CNC(=S)c2ccc3ccccc3c2)cc1 | -15 | -5 | -6 | 0 | i | · | -10 | -3
CC(=O)N1N=C(c2ccco2)CC1c1ccco1 (configuration not stated) | -4 | 5 | -1 | -9 | i | -11 | 1 | -1
CC(=O)c1cc2c(cc1N(C(=O)c1ccco1)C(C(=O)NC1CCCC1)c1ccccc1F)OCO2 (configuration not stated) | -4 | 0 | 3 | · | i | 4 | 3 | 5
O=C(Nc1cccnc1)c1ccc([N+](=O)[O-])o1 | -7 | 8 | -2 | 54 | i | 2 | 1 | -1
COc1ccc(C(=O)N2CCC3(CC2)NCCc2[nH]cnc23)cc1OC | -11 | -6 | -1 | -10 | i | -5 | -3 | 0
CCOc1ccc(-n2c(SCc3ccc([N+](=O)[O-])cc3)nnc2-c2ccccc2)cc1 | · | 4 | 9 | 22 | i | -1 | -10 | -14
